# Sa RN4220 lethal: S. aureus RN4220 growth inhibition; 0.33% of 330,000 active; inhibition, % (concentration not given with the values); AID 1259311; OD600, 16 h;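 active = z-score of -3 or lower and OD600 up to 0.18 on both plates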;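 also: plate controls were untreated cells for no effect and reference antibiotic for full effect; stock transfer was 100 nL into about 80 µL; one replicate is shown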
# Sa ugtP lethal: growth inhibition of S. aureus ugtP deletion strain; S. aureus RN4220 ugtP deletion, OD600 growth, 16 h; some inactives read as strong as hits; growth inhibition, % (no concentration beside the values); 0.54% of 330,000 active; AID 1259309;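 active = z-score under -3 and OD600 up to 0.15 on both plates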;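 also: plate controls were untreated wells for no effect and antibiotic for full effect; wells of about 80 µL received 100 nL stock; the first replicate is given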
# BJeLR viability: kills HRASV12-expressing BJeLR cells | BJeLR (HRASV12) viability, CellTiter-Glo ATP luminescence, 48 h; reference of the scale not given here | inhibition, % (concentration not given with the values) | 0.17% of 300,000 active | AID 1554;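 active = replicate mean above 50%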;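 also: 50 nL library stock added to about 25 µL; numbers are from one replicate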
# Mtb hypoxia rep: Mtb hypoxia fluorescent reporter inhibition; fluorescence inhibition, % (test concentration not listed); AID 1159583; 0.1% of 300,000 active; M. tuberculosis hypoxia-regulated fluorescent reporter, fluorescence;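 active = 35 to 45% if threefold the growth effect, above 45% if 1.5-fold the growth effect; inactive = the rest, general growth blockers included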;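 also: wells of about 50 µL received 100 nL stock; 0% = vehicle wells and 100% = reference inhibitor wells; whole bacteria with a GFP reporter of the hypoxia response; strong numbers were not always called active; many hits fall short of the cut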
# Bead autofluor: compound fluorescence in toxin protease inhibitor counterscreen | fluorescence intensity (no concentration beside the values) | compound autofluorescence counterscreen, microsphere flow cytometry; stronger effect = higher value | 3.1% of 360,000 active;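 active = at least 3 SD above the mean of all compounds, about 16000 in these data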;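 also: 100 nL of 1 mM stock went into each well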
# PrP 5UTR inh: inhibition of PrP 5' UTR reporter expression; cell-based PrP 5' UTR mRNA reporter, plate reader; inhibition, % (concentration not given with the values); 0.35% of 340,000 active; AID 488862;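 active = every replicate at 50% or more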;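 also: 0 = median of the neutral control wells; tested in H4 reporter cells; numbers are from one replicate; inactives centre near -14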
# Mtb hypoxia rep growth: also measured in Mtb hypoxia rep; calls as there; growth inhibition, %; measured here: M. tuberculosis growth (absorbance);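 0% = vehicle and 100% = reference antibiotic; read after six days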
# * marks the source's active call; other numbers are inactive results; x = no result given; & = joins results of further samples.
no.	smiles	Sa RN4220 lethal	Sa ugtP lethal	BJeLR viability	Mtb hypoxia rep
1	Cc1ccc(C(=O)Nc2ccccc2C(=O)NC(C(=O)O)C(C)C)cc1 (configuration not stated)	0.4	-6	11	6
2	COc1ccc(-c2cn(Cc3ccc(C(N)=O)cc3)c(-c3ccc(Cl)nc3)n2)cc1	6.8	7	x	19
3	COC(=O)CNC(=O)CN1C(=O)NC2(CCCc3ccccc32)C1=O (configuration not stated)	3.8	6	-2	5
4	COc1ccc(N(CC(=O)NCc2ccccc2)S(=O)(=O)c2c(C)n[nH]c2C)cc1	5.2	17	9	5
5	CCCCN(C)C(=O)CCC(=O)Nc1ccc2nc(N3CCN(C)CC3)cc(C)c2c1	6.0	11	-3	-8
6	CCn1c(/C=C/N(C(C)=O)c2ccccc2)[n+](CCCS(=O)(=O)[O-])c2cc(Cl)c(Cl)cc21	2.2	0	x	4
7	CN[C@H](C(=O)NC[C@H]1O[C@@H](n2cnc3c(N)ncnc32)[C@H](O)[C@@H]1O)[C@@H](C)OCc1ccccc1	5.1	6	x	6
8	COc1ccc(/C=N/Nc2nn3cnnc3c3ccccc23)cc1	x	x	0	x
9	O=C(NCC1([N+](=O)[O-])CN(C(=O)c2ccccc2)CN(C(=O)c2ccccc2)C1)c1ccccc1	11	7	-1	-3
10	CCN(CC)C(=O)Cn1c(=O)n(CCCC(=O)NCc2ccc3c(c2)OCO3)c(=O)c2sccc21	4.7	8	-3	1
11	COc1ccccc1OCCCCNCCO	5.0	5	2	19
12	O=C1Nc2ccc(Br)cc2C1(O)Cc1ccccn1 (configuration not stated)	3.2	10	-2	7

no.	Mtb hypoxia rep growth	Bead autofluor	PrP 5UTR inh
1	13	10870	1&-30
2	8	2811	-22
3	1	4098	-10
4	1	4719	3
5	6	3251	-25
6	8	4717	-17
7	4	2833	-16
8	x	3720	-15
9	-2	4415	-21
10	9	3515	-10
11	6	7969	2
12	-2	7750	-24

# Following part
no.	smiles	Sa RN4220 lethal	Sa ugtP lethal	BJeLR viability	Mtb hypoxia rep
13	O=C(Nc1ccc2c(c1)OCCO2)c1ccco1	3.9	-2	7	4
14	N#Cc1c(-c2ccc(F)cc2)nc(-c2ccccc2)[nH]c1=O	2.3	1	1	-7
15	O=C(NCc1ccc2c(c1)OCO2)c1ccc(N2CCCCCC2)c([N+](=O)[O-])c1	-7.5	5	0	2
16	CNC(=S)N1N=C2c3ccccc3CCC2C1c1ccccc1Cl (configuration not stated)	9.4	-8	-7	8
17	Cn1c(C(O)c2ccc(Cl)cc2)nc(Cl)c1Cl (configuration not stated)	-4.1	-8	-7	8
18	COc1ccc(CC(=O)NCC2CCCN(Cc3cccc(SC)c3)C2)cc1 (configuration not stated)	x	x	-9	x
19	C=CCOc1ccc(C2C(C(=O)c3cccs3)=C(O)C(=O)N2c2nnc(C)s2)cc1 (configuration not stated)	-7.0	18	4	-2
20	CC(=O)c1c(C)[nH]c(C(=O)N2CCN(c3cc(Cl)ccc3C)CC2)c1C	1.0	-5	-5	15
21	CC1CCCCC1NC(=O)C1CCC(CNc2c(N3CCCCC3)c(=O)c2=O)CC1 (configuration not stated)	3.6	3	-4	15
22	CN1CCC(N(C)c2ncnc3ccc(Br)cc23)CC1	2.6	9	x	x
23	O=C(O)/C=C/C(=O)Nc1ccc(-c2ccccc2)cc1	8.4	11	5	6
24	CCCCC1(CC)SCC(=O)NC1=O (configuration not stated)	3.5	5	x	11

no.	Mtb hypoxia rep growth	Bead autofluor	PrP 5UTR inh
13	3	6019	-23
14	2	2530	-12
15	10	2376	-16
16	-4	3759	-16
17	3	3715	-24
18	x	7204	-33
19	4	7000	-15
20	10	3279	-40
21	14	4296	-17
22	x	5947	-19
23	12	1989	-3
24	14	3335	-19

# Compounds listed so far that have a thiophene ring, fused or not, in the order listed:
no.	smiles	Sa RN4220 lethal	Sa ugtP lethal	BJeLR viability	Mtb hypoxia rep
10	CCN(CC)C(=O)Cn1c(=O)n(CCCC(=O)NCc2ccc3c(c2)OCO3)c(=O)c2sccc21	4.7	8	-3	1
19	C=CCOc1ccc(C2C(C(=O)c3cccs3)=C(O)C(=O)N2c2nnc(C)s2)cc1 (configuration not stated)	-7.0	18	4	-2

no.	Mtb hypoxia rep growth	Bead autofluor	PrP 5UTR inh
10	9	3515	-10
19	4	7000	-15

# Further results follow:
no.	smiles	Sa RN4220 lethal	Sa ugtP lethal	BJeLR viability	Mtb hypoxia rep
25	C[C@@H](CSc1ccccc1)CN1CC[C@H](C(C)(C)C)CCC1=O	-3.6	-11	0	13
26	COC(=O)C1=C(c2ccc(S(C)(=O)=O)cc2)CC2CCC1N2C (configuration not stated)	4.3	0	x	6
27	CN1CCN(c2nc(-c3ccccc3O)nc3ccccc23)CC1	-4.0	4	2	16
28	O=C(COC(=O)CNC(=O)c1cccc(F)c1)NCCC1=CCCCC1	-0.8	7	-6	-3
29	C[C@@H]1O[C@@H](OC[C@H]2O[C@@H](Oc3c(-c4ccc(O)c(O)c4)oc4cc(O)cc(O)c4c3=O)[C@H](O)[C@@H](O)[C@@H]2O)[C@H](O)[C@H](O)[C@H]1O	x	x	-3	x
30	O=C(O)C/C(=C\c1cc(Cl)c2c(c1)OCO2)c1nc2ccccc2s1	x	x	0	x
31	COc1ccccc1-c1nnc(SC(C)C(=O)NCC2CCCO2)n1C (configuration not stated)	3.7	8	x	-10
32	O=S(=O)(NCc1ccccc1)c1ccccc1NCCc1ccccc1	9.5	-2	x	-6
33	CC(OC(=O)c1ccccn1)C(=O)Nc1nc(-c2ccc(F)c(F)c2)cs1 (configuration not stated)	2.6	5	x	4
34	CC(C)C[C@H](NC(=O)N1CCN(c2ccccc2)CC1)C(=O)O	1.1	2	-16	8
35	C=CCn1c(SCc2cccnc2)nnc1-c1ccncc1	2.5	-1	x	0
36	O=C(CSc1ncccn1)Nn1cnnc1	7.4	2	3	10

no.	Mtb hypoxia rep growth	Bead autofluor	PrP 5UTR inh
25	9	3696	-14
26	7	x	x
27	6	3197	-36
28	0	2711	-8
29	x	5929	-12
30	x	5986	-8
31	3	7033	-24
32	-15	2880	-13
33	4	2803	-54
34	8	11082	-16
35	6	10310	-16
36	4	11498	-13

# In the list so far, four have a COOH group:
no.	smiles	Sa RN4220 lethal	Sa ugtP lethal	BJeLR viability	Mtb hypoxia rep
1	Cc1ccc(C(=O)Nc2ccccc2C(=O)NC(C(=O)O)C(C)C)cc1 (configuration not stated)	0.4	-6	11	6
23	O=C(O)/C=C/C(=O)Nc1ccc(-c2ccccc2)cc1	8.4	11	5	6
30	O=C(O)C/C(=C\c1cc(Cl)c2c(c1)OCO2)c1nc2ccccc2s1	x	x	0	x
34	CC(C)C[C@H](NC(=O)N1CCN(c2ccccc2)CC1)C(=O)O	1.1	2	-16	8

no.	Mtb hypoxia rep growth	Bead autofluor	PrP 5UTR inh
1	13	10870	1&-30
23	12	1989	-3
30	x	5986	-8
34	8	11082	-16

# Next part:
no.	smiles	Sa RN4220 lethal	Sa ugtP lethal	BJeLR viability	Mtb hypoxia rep
37	O=C(NCCc1ccccc1Cl)c1cc(COc2ccc(F)cc2F)on1	1.6	-4	-3	-4
38	O=C(Nc1ccc(Br)cc1F)c1ccc2c(c1)OCCO2	11	3	3	4
39	N=c1oc2ccccc2cc1C(=O)Nc1ccccc1	3.9	1	11	-2
40	COC(=O)c1cc(C(=O)NC(C)(C)CC(C)(C)C)cc([N+](=O)[O-])c1	5.8	11	-6	8
41	O=C1C2C3C=CC(C4CC34)C2C(=O)N1/N=C/c1ccc([N+](=O)[O-])s1 (configuration not stated)	x	x	1	x
42	C/C(N)=C(/C#N)C(=O)COC(=O)CCS(=O)(=O)c1ccccc1	2.7	4	-6	x
43	CCOC(=O)c1[nH]c(C)c(C(=O)NCCC2=CCCCC2)c1C	-19	-11	-5	7
44	O=C(Nc1ccccc1)Nc1nnc(-c2ccccc2)o1	-2.8	-14	2	1
45	O=C(Nc1ccc([N+](=O)[O-])cc1Br)c1cccnc1	1.9	13	-6	8
46	O=C(N/N=C/c1ccco1)c1cc(=O)[nH]c2ccccc12	x	x	-6	x
47	CC(C)c1nc2oc3c(=O)[nH]cnc3c2c2c1COC(C)(C)C2	2.7	6	13	11
48	CC(C)NC1CS(=O)(=O)CC1O (configuration not stated)	0.5	8	-12	4

no.	Mtb hypoxia rep growth	Bead autofluor	PrP 5UTR inh
37	5	4598	-5
38	2	4550	-34
39	4	3734	-44
40	9	4056	-11
41	x	2402	-40
42	x	4259	-8
43	5	2909	-28
44	10	4103	-24
45	8	2422	-17
46	x	4525	2
47	18	4091	-10
48	8	8136	-22

# Two of the compounds above, tab-delimited.
entry	SMILES	Sa RN4220 lethal	Sa ugtP lethal	BJeLR viability	Mtb hypoxia rep	Mtb hypoxia rep growth	Bead autofluor	PrP 5UTR inh
38	O=C(Nc1ccc(Br)cc1F)c1ccc2c(c1)OCCO2	11	3	3	4	2	4550	-34
39	N=c1oc2ccccc2cc1C(=O)Nc1ccccc1	3.9	1	11	-2	4	3734	-44

# (list continues)
no.	smiles	Sa RN4220 lethal	Sa ugtP lethal	BJeLR viability	Mtb hypoxia rep
49	CCOC(=O)C1CCCN(C(=O)/C=C/c2ccccc2[N+](=O)[O-])C1 (configuration not stated)	6.6	8	-3	12
50	CCOC(=O)CN1C(=O)N[C@@H](c2cccs2)C(C(C)=O)=C1C	x	x	1	x
51	COc1ccc(C(CNC(=O)c2ccc(S(=O)(=O)N3CC(C)CC(C)C3)cc2)N(C)C)cc1 (configuration not stated)	-12	-18	x	6
52	COc1ccc(Cl)cc1NC(=O)CS(=O)(=O)c1cccc2nsnc12	4.6	9	-3	13
53	O=C(C(Cc1ccccc1)NS(=O)(=O)c1cccc2nsnc12)N1CCC2(CC1)OCCO2 (configuration not stated)	5.7	-1	4	8
54	O=C(Cn1nc(C(=O)O)c2ccccc2c1=O)NCCC1=CCCCC1	7.9	6	-4	5
55	COc1ccc(-c2cc(C3CCN(C(=O)OC(C)(C)C)CC3)[nH]n2)cc1	79	-54	9	7
56	O=c1[nH]c(/C=C/c2cccc(Br)c2)nc2ccccc12	0.0	3	15	-12
57	O=C1CC[C@@H](OCc2ccccc2)CCN1CC[C@H](Sc1ccccc1)c1ccccc1	x	x	5	x
58	O=C(NN=Cc1ccc(Cl)cc1)C1=NOC2COC3(CCN(c4ccc([N+](=O)[O-])cc4)CC3)OCC12 (configuration not stated)	-2.6	-7	x	2
59	Cc1cccc(C(O)C(O)c2cccc(C)n2)n1 (configuration not stated)	-1.8	3	x	15
60	Cc1ccccc1NC(=O)c1cc([N+](=O)[O-])ccc1NCCN1C(=O)CCC1=O	-2.3	8	3	3

no.	Mtb hypoxia rep growth	Bead autofluor	PrP 5UTR inh
49	9	2535	-14
50	x	3949	-5
51	4	2923	-4
52	9	8397	-19
53	12	9800	-16
54	-1	2521	-10
55	3	4751	-12
56	0	4140	-78
57	x	3756	-19
58	0	x	x
59	1	3338	-25
60	13	5821	-33

# Following part.
no.	smiles	Sa RN4220 lethal	Sa ugtP lethal	BJeLR viability	Mtb hypoxia rep
61	COc1ccc(OC)c(/C(O)=C/C(=O)C(=O)Nc2ccccc2OC)c1	x	x	7	x
62	ON=C1CCCC2CCCCC12 (configuration not stated)	1.4	3	x	13
63	O=C(CCCCn1c(=O)[nH]c2ccccc2c1=O)NCCc1c[nH]c2ccccc12	5.1	12	-8	5
64	CC(=O)OCc1cc2cccc(C)c2[nH]c1=O	-4.3	2	9	x
65	Cc1ccc(C(=O)Nc2cccc3cccnc23)cc1C	0.6	13	-13	11

no.	Mtb hypoxia rep growth	Bead autofluor	PrP 5UTR inh
61	x	3993	-20
62	7	2904	-17
63	2	4233	-2
64	x	x	-9
65	-6	x	-26

# Two compounds picked at random from those above, as already listed:
no.	smiles	Sa RN4220 lethal	Sa ugtP lethal	BJeLR viability	Mtb hypoxia rep
64	CC(=O)OCc1cc2cccc(C)c2[nH]c1=O	-4.3	2	9	x
62	ON=C1CCCC2CCCCC12 (configuration not stated)	1.4	3	x	13

no.	Mtb hypoxia rep growth	Bead autofluor	PrP 5UTR inh
64	x	x	-9
62	7	2904	-17

# Rows are unselected; overall some 4% were active at least once.
